# T cruzi inh = inhibitors of intracellular T. cruzi growth, primary screen, luminescence, NIH3T3 host cells | inhibition, % (test concentration not listed) | T. cruzi beta-gal in NIH3T3, 90 h | 1.4% of 300,000 active;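 active means mean inhibition across valid replicates above about 55%, limit read from the data; inconclusive means mean below that limit but half or more replicates reach it; inactive means mean below it, under half of replicates reach it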;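 further: signal also drops with host cell toxicity which is not excluded here; 0% = plate median of DMSO wells and 100% = zero luminescence signal; higher percent means less beta-gal luminescence so fewer parasites; stock transfer was 50 nL into about 50 µL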
# Ecoli growth = E. coli growth inhibition, primary screen, OD600; Escherichia coli growth, 23 h; hits give low values; OD600 absorbance (no concentration beside the values); 0.21% of 330,000 active; AID 1053175, 2014;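 active means OD600 absorbance below the run mean of sample wells minus 3.6 SD, in any replicate, cut at about 0.56 in these data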;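 further: stock transfer was 300 nL into about 60 µL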
# Ecoli rRNA inh = reduced GFP signal of wild-type E. coli, primary screen, bacterial rRNA inhibitor project, GFP/RFP fluorescence, OD600, single point | GFP signal change (wild-type ribosome), % (no concentration beside the values) | 1.6% of 350,000 active | E. coli WT GFP vs humanized-ribosome RFP mutants, 24 h; hits give low values; DMSO median 0, no signal -100;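 active means significant combined selectivity score with lowered wild-type GFP, culture density cut under 30%, mutant RFP and density less affected; inactive means any of these conditions unmet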; further: one replicate is shown; some compounds called inactive have numbers as strong as hits
# A1 inh = caspase 3/7 activation in MEF A1-2A-BIM cells, primary screen, A1 inhibitor project, cell-based, luminescence, HTS. Caspase-Glo 3/7 luminescence, 3 h; percent of clofoctol response, vehicle zero. caspase activation, % (concentration not given with the values). 0.066% of 330,000 active. AID 2462, 2010;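 active means over half of replicate activation scores above 10%, or exactly half above 10 with the replicate mean above 10; inconclusive means replicate mean below 10 yet half the replicates above 10; inactive means over half of replicates below 10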;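 further: wells of about 30 µL received 50 nL stock; many hits fall short of the cut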
# FGF22 binding = binders of human FGF22 protein, primary screen, FGF22 synaptogenesis inhibitor project, biophysical, thermal shift, single point; calls only at 9.99 µM; Fibroblast growth factor 22 (Homo sapiens), Q9HCT0; recombinant FGF22 thermal shift, SYPRO orange fluorescence; percent of sucrose octasulfate shift, DMSO zero; AID 651658, 2012; 1.5% of 340,000 active;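 active means melting point raised past a set limit in the mean and every replicate; inconclusive means no clear call; three in four hits are not shown here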
# Target sequence (Q9HCT0 whole entry, looked up): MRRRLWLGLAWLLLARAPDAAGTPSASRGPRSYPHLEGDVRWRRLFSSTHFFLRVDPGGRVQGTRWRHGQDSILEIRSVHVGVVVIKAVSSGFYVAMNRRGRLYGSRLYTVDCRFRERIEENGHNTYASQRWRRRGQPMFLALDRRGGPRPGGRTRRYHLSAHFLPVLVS
# AF4-AF9 inh = inhibitors of AF4 peptide binding to AF9, primary screen, biochemical, AlphaScreen, biotin-AF4 peptide, FLAG-AF9, single point; Protein AF-9 (Homo sapiens), P42568; inhibition, % at 10 µM; 0.47% of 350,000 active;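 active means every replicate reaching a set inhibition limit, whatever the replicate mean, cut at about 25% in these data; inconclusive means mean inhibition reaches that limit but some replicates miss it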;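 further: 0% = plate neutral control median and 100% = total signal loss; the record names both 10 and 1 µM as test concentration; the first replicate is given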
# Target sequence (P42568 whole entry, looked up): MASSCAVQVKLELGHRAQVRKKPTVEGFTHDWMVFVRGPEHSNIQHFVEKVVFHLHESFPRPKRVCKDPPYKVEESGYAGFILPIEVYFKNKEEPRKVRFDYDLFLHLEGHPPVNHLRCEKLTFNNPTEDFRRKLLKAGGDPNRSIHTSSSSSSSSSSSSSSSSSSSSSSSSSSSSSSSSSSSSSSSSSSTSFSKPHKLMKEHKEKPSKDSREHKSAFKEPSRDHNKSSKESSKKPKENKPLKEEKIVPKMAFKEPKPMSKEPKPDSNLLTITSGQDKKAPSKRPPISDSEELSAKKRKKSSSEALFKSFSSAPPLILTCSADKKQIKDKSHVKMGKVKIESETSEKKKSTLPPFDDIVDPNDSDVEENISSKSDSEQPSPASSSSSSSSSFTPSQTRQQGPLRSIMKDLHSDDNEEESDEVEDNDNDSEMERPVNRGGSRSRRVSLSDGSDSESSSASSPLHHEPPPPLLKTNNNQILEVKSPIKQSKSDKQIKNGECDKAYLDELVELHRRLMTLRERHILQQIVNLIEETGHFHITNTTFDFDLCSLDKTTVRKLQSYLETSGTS
# Beta cell apopt = inhibitors of cytokine-induced beta cell apoptosis, primary screen, luminescence | 0.8% of 300,000 active | AID 435005, 2010 | protection from apoptosis, % (test concentration not listed) | INS-1E cytokine-induced death, ATP luminescence, 48 h; percent of positive-control rescue, neutral wells zero;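 active means all replicates at 75% or more, or half of them and the mean; inconclusive means half reach 75% but not the mean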;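 further: 0% = cytokine-treated negative control wells and 100% = positive control rescue; higher means more ATP so stronger rescue from cytokine killing; wells of about 40 µL received 100 nL stock; the first replicate is given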
# UCH37 inh = inhibitors of human UCH37 deubiquitinase, primary screen, biochemical, Ub-AMC cleavage, fluorescence; purified proteasome/UCH37; inhibition, % (test concentration not listed); Ubiquitin carboxyl-terminal hydrolase isozyme L5 (Homo sapiens), Q9Y5K5; 0.33% of 330,000 active; AID 588478, 2011;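 active means mean of two replicates above 20%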;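 further: 0% = compound-free wells with enzyme and 100% = wells lacking proteasome; stock transfer was 100 nL into about 20 µL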
# Target sequence (Q9Y5K5 whole entry, looked up): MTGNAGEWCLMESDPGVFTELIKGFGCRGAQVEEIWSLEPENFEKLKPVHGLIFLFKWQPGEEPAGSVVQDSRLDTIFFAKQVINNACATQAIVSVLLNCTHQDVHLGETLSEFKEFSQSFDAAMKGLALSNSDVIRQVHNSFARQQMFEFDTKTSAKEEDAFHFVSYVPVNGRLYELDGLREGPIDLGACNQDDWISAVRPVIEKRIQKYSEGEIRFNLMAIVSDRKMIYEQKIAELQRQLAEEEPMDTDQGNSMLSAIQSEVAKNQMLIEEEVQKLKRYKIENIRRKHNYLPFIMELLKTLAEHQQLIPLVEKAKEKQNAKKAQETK
#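 System: Proteasome-associated human UCH37 deubiquitinase; Input: 0.15 nM proteasome in added enzyme buffer; Also added: Ub-AMC substrate from 1 µM stock; Incubation: 30 min compound-proteasome preincubation then 25 min substrate reaction, room temperature; Detection: fluorescence, ex 355 nm, em 460 nm; Read-out: % inhibition of Ub-AMC cleavage fluorescence; Benchmarks: no-proteasome and no-compound wells.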
# Ecoli rRNA inh OD600 = recorded beside Ecoli rRNA inh, whose call it bears; OD600 change, %; measured here: OD600 growth;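 optical density of the mix in the first replicate; 0 = DMSO median and -100 = no signal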
# Ecoli rRNA inh RFP = recorded beside Ecoli rRNA inh, whose call it bears; RFP signal change, %; measured here: RFP humanized mutant strains;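 first replicate; 0 = DMSO median and -100 = no signal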
# Numbers without * were called inactive; i = inactive; ? = inconclusive; . = not tested or not shown.
# Under each structure – T cruzi inh	Ecoli growth	Ecoli rRNA inh	Ecoli rRNA inh OD600	Ecoli rRNA inh RFP	A1 inh	FGF22 binding	AF4-AF9 inh	Beta cell apopt	UCH37 inh
- O=C(COc1coc(CN2CCN(c3ccccc3)CC2)cc1=O)Nc1ccc(F)cc1
→ -12	0.7	8	6	0.0	-0.8	i	-1.3	.	2.6
- COc1ccc(C(CC(=O)N2CCOCC2)c2c(OC)cc(OC)c3ccc(=O)oc23)cc1 (centres undefined)
→ -27	0.7	0	0	5.8	0.5	i	6.1	-5	-17
- O=C(CCN1C(=O)/C(=C/c2ccccc2Cl)SC1=S)NC1CCCC1
→ -5	0.71	0	11	-1.6	-1.2	i	-1.3	-2	4.9
- N#CCCn1cc(C=O)c(-c2cccs2)n1
→ -9	0.69	1	4	-0.9	0.9	i	-2.6	3	-2.8
- O=c1c2cc(Br)ccc2[nH]c(=S)n1Cc1ccccc1
→ -6	0.69	-36*	5.6*	-11*	0.0	i	-1.1	.	1.7
- O=C(Nc1cccc(F)c1)C1CCCN(S(=O)(=O)c2ccccc2)C1 (centres undefined)
→ -1	0.7	1	-20	-1.2	0.1	i	-0.3	1	7.7
- COC(=O)c1ccccc1NC(=O)CSc1nnc(-c2ccc(OC)cc2)n1C
→ -3	0.73	.	.	.	0.0	.	.	2	1.6
- Cc1cc2c3c(c1)C(C)CC(C)(C)N3C(=O)C2=O (centres undefined)
→ 9	0.69	5	3	2.7	0.5	i	-2.2	-1	2.3
- COc1ccc(S(=O)(=O)Nc2ccccc2C(=O)NN2CCOCC2)cc1OC
→ .	0.66	0	5	-0.8	0.8	i	?	0	0.8
- O=C(O)C1C(c2ccccc2)C(C(=O)N2CCOCC2)C1c1ccccc1 (centres undefined)
→ -26	0.73	.	.	.	-0.7	.	.	3	7.8
- CCc1ccc(OCC(=O)Nc2ccc(S(=O)(=O)N3CCOCC3)cc2)cc1
→ 0	0.66	0	-3	-2.8	-0.1	i	2.6	-3	-1.8
- CC1CC(C)CN(CCCNC(=O)C2CCCN(c3nnc(N4CCCC4=O)s3)C2)C1 (centres undefined)
→ -26	0.69	.	.	.	-1.1	.	.	-1	0.1
- Cc1oc(/N=C/c2cccc([N+](=O)[O-])c2)c(C#N)c1C
→ 5	.	34	17	7.4	-1.1	i	-16	0	.
- CC(=O)NCCc1c[nH]c2ccc(OCc3ccccc3)cc12
→ -3	0.68	-10	-2	4.1	0.8	i	.	-10	2.0
- Cc1ccc(/C(N)=N/OC(=O)c2ccc(Cl)cc2Cl)cc1
→ 0	0.68	7	8	6.5	-3.4	i	-3.6	-5	0.4
- Cc1nc(-c2ccc(NC(=O)c3ccccc3Br)cc2)cs1
→ 13	0.68	.	.	.	1.1	.	.	-6	1.0
- COC(=O)[C@@H](NC(=O)c1ccc2c(c1)S(=O)(=O)c1ccccc1C2=O)C(C)C
→ -1	0.7	-1	-3	0.2	-0.2	i	-3.4	-4	0.9
- COc1ccc(C(=O)C[n+]2ccc3ccccc3c2C)cc1
→ 26	0.7	9	-11	5.7	-0.2	i	3.7	6	0.0
- c1ccc(Cn2c3ccccc3c3nnc(SCCN4CCCCC4)nc32)cc1
→ 69*	.	.	.	.	0.1	i	0.8	-29	.
- COC(=O)c1ccc(CN2CCN(C(C)C)C(CCO)C2)cc1 (centres undefined)
→ 19	0.71	16	20	-2.0	0.2	i	-2.4	-3	6.2
- CCCCN(CC)C(=O)CSc1nc2ccccc2c(=O)n1CC1COc2ccccc2O1 (centres undefined)
→ 49	0.75	.	.	.	0.4	.	.	18	1.6
- O=C(CCC(=O)N1CCc2ccccc2C1)NCCc1ccc(Cl)cc1
→ 1	0.67	-22	-32	4.2	-0.3	.	-4.7	0	3.2
- OCCSc1c(F)c(SCCO)c(SCCO)c(F)c1SCCO
→ -23	0.68	.	.	.	-0.4	.	.	-4	3.0
- O=C(c1ccc2snnc2c1)N1CCCCC1
→ -1	0.73	.	.	.	0.1	.	.	-1	-1.5
- COc1ccccc1CN(Cc1nc2ccccc2c(=O)[nH]1)S(=O)(=O)c1ccc2ccccc2c1
→ 36	0.68	.	.	.	-0.2	.	.	8	4.5
- O=C(CC1SC(N2CCOCC2)=NC1=O)Nc1ccccc1F (centres undefined)
→ .	0.7	7	7	-0.3	0.3	i	-2.9	-3	1.7
- CN(C)S(=O)(=O)c1cccc(NC(=O)NCCCl)c1
→ -13	0.69	10	5	-0.7	-0.5	i	0.8	-7	-0.2
- COc1cccc(/C=C2\SC(=S)N(c3cccnc3)C2=O)c1OC
→ -2	0.61	4	5	-2.9	0.7	i	-2.6	3	4.2
- CC(=O)c1cn(N(C)c2ncc(C(F)(F)F)cc2Cl)c(=O)[nH]c1=O
→ -5	0.67	9	22	0.9	0.3	.	-2.6	-5	1.4
- NC(=O)CSc1nnnn1CC(CC(=O)O)c1ccccc1 (centres undefined)
→ -6	0.67	.	.	.	0.0	.	.	-3	0.0
- O=C(NCc1cccnc1)c1ccc(COc2ccccc2Br)o1
→ -34	0.69	-24*	3.3*	1.3*	0.1	.	-1.2	2	1.5
- O=C(Nc1ccc(Cn2nnc3ccccc32)cc1)c1ccco1
→ -5	0.7	-2	6	-2.5	0.7	.	.	10	-6.1
- COc1ccc(Cl)cc1NC(=O)CN(C)C(=O)c1cc(=O)c2ccccc2o1
→ .	0.71	-8	-10	0.1	2.4	i	3.0	-6	0.5
- CCC(=O)Nc1ccc2c(c1)Cc1cc([N+](=O)[O-])ccc1-2
→ .	0.71	-20	-21	12	.	i	-0.2	.	3.0
- CN1CCCC(OC(=O)c2cccc(Cl)c2)C1 (centres undefined)
→ -5	0.72	9	1	-1.0	-0.7	i	-2.6	-6	3.2
- CC(=O)Nc1ccc(-c2nnn(CC(=O)Nc3ccc4c(c3)OCO4)n2)cc1Cl
→ 7	0.71	23	28	2.2	1.2	i	-1.1	-3	0.5
- O=C(O)c1cccc(S(=O)(=O)N2Cc3ccccc3C2)c1
→ -11	0.67	.	.	.	0.5	.	.	-1	-1.3
- CCOC(=O)/C(=N\Nc1cccc(C(F)(F)F)c1)N1CCOCC1
→ -12	.	-3	5	0.3	-0.4	i	0.9	-4	.
- CC(C)C(NC(=O)c1ccco1)C(=O)NCC(c1ccco1)N(C)C (centres undefined)
→ -10	0.71	8	1	0.3	-0.1	.	.	-2	1.3
- O=C(COc1cccnc1[N+](=O)[O-])Nc1ccc2c(c1)CCC2
→ 23	0.71	4	4	-4.9	-0.1	i	-3.0	-2	0.6

# Individual results from the entries so far.
# T cruzi inh result of O=C(O)C1C(c2ccccc2)C(C(=O)N2CCOCC2)C1c1ccccc1 (centres undefined) : -26
# Ecoli growth result of CN1CCCC(OC(=O)c2cccc(Cl)c2)C1 (centres undefined) : 0.72
# Ecoli rRNA inh RFP result of O=C(CCC(=O)N1CCc2ccccc2C1)NCCc1ccc(Cl)cc1 : 4.2

# (more compounds)
# Under each structure – T cruzi inh	Ecoli growth	Ecoli rRNA inh	Ecoli rRNA inh OD600	Ecoli rRNA inh RFP	A1 inh	FGF22 binding	AF4-AF9 inh	Beta cell apopt	UCH37 inh
- Cc1ccc2c(c1)C1CN(C)CCC1N2C(=O)c1ccccc1NS(=O)(=O)c1ccc(F)cc1C (centres undefined)
→ 36	0.69	.	.	.	0.7	.	.	1	3.5
- CN(C)Cc1ccccc1C1(O)c2ccccc2CSc2ccccc21 (centres undefined)
→ 17	0.75	.	.	.	-0.1	.	.	-1	3.3
- C=CCOc1ccc(/C=N/NC(=O)C2CCCC2)cc1OCC
→ 1	.	2	9	-1.7	0.0	i	-9.0	-5	.
- Cc1ccc(NC(=O)COc2cccc3ccc(C)nc23)c(Br)c1
→ 6	0.66	.	.	.	-0.9	.	.	14	-3.2
- COc1ccc(N2CCN(C(=O)c3csc4ccccc34)CC2)cc1
→ -6	0.68	.	.	.	0.6	.	.	2	0.9
- Cc1c(NC(=O)C(C)OC(=O)c2c3c(nc4ccccc24)CCC(C)C3)c(=O)n(-c2ccccc2)n1C (centres undefined)
→ -9	0.68	9	4	3.5	1.3	i	-8.1	-1	-4.1
- Cn1c(Nc2ccccc2)cc(=O)n(C)c1=O
→ 16	0.66	14	18	0.1	-0.1	i	-9.5	.	0.9
- O=C(COC(=O)CCSc1ccc(Cl)cc1)NCc1ccccc1
→ -27	0.64	-10	-13	-3.0	-0.4	.	0.3	-12	3.8
- O=C(/C=C/c1cccc(Br)c1)N1CCN(c2ccccn2)CC1
→ -1	0.67	-18	-31	-2.6	-0.8	i	-7.2	-11	5.9
- COc1ccc(NS(=O)(=O)c2cc(NC(=O)C(CC(C)C)NC(N)=O)ccc2N2CCOCC2)cc1 (centres undefined)
→ .	0.66	4	10	2.6	.	i	4.2	.	5.3
- Cc1cc(C)c(S(=O)(=O)N2CCCCC2)c(C)c1-n1ncnn1
→ 0	0.65	.	.	.	0.3	.	.	-10	5.4
- O=C(O)C1CC1c1ccc(Br)cc1 (centres undefined)
→ -21	0.7	.	.	.	-0.7	.	.	0	-3.0
- CN(Cc1c(C(=O)N/N=C/c2cccc(F)c2)nnn1-c1nonc1N)c1ccccc1
→ 4	.	-8	-14	-3.6	0.6	i	-3.8	-2	.
- COc1ccc(C2C(C(=O)c3ccco3)=C(O)C(=O)N2CCCn2ccnc2)c(OC)c1 (centres undefined)
→ -24	0.65	6	9	-1.2	1.5	i	1.7	0	9.6
- O=S(=O)(c1ccc2c(c1)OCCO2)N1CCN(c2cccc(Cl)c2)CC1
→ 10	0.72	.	.	.	2.2	.	.	-1	4.5
- O=C(CSc1ccc(Cl)cc1)NNC(=O)c1ccco1
→ -11	0.7	16	14	1.9	0.5	i	-2.1	-3	3.3
- Cn1c(=O)[nH]c(=O)c2c1nc(N/N=C/c1ccncc1)n2Cc1ccc(Cl)cc1
→ 5	.	15	15	1.9	0.0	i	-4.9	3	.

# Sorted by SMILES length (smallest number first): part of the list above
# Under each structure – T cruzi inh	Ecoli growth	Ecoli rRNA inh	Ecoli rRNA inh OD600	Ecoli rRNA inh RFP	A1 inh	FGF22 binding	AF4-AF9 inh	Beta cell apopt	UCH37 inh
- Cn1c(Nc2ccccc2)cc(=O)n(C)c1=O
→ 16	0.66	14	18	0.1	-0.1	i	-9.5	.	0.9
- COc1ccc(C2C(C(=O)c3ccco3)=C(O)C(=O)N2CCCn2ccnc2)c(OC)c1 (centres undefined)
→ -24	0.65	6	9	-1.2	1.5	i	1.7	0	9.6
- Cc1c(NC(=O)C(C)OC(=O)c2c3c(nc4ccccc24)CCC(C)C3)c(=O)n(-c2ccccc2)n1C (centres undefined)
→ -9	0.68	9	4	3.5	1.3	i	-8.1	-1	-4.1

# Assay outcomes as filed in PubChem.

# The list is partial; count on the stated rates, not on these rows.
